# StopGo RLuc: FMDV 2A StopGo reporter, Renilla signal; HEK cells with a luciferase reporter of 2A StopGo recoding; Potency, µM (doses to about 57.5 µM), for inactives: at the highest dose signal change, negative = less light; AID 1745857; actives 0.32% (n = 120,000); active means well fitted falling curve with a large enough effect; inconclusive means small, poorly fitted or top-dose-only effect; inactive means no such curve, though single readings can be large or run the other way; further: nearly all actives have a fitted effect of over 55% in size; overnight with compound
# StopGo FLuc: FMDV 2A StopGo reporter, firefly signal | Potency, µM (doses to about 57.5 µM), for the others: top-dose signal change, negative = less light | actives 0.23% (n = 120,000) | HEK cells with a luciferase reporter of 2A StopGo recoding; active = well fitted falling curve with a large enough effect; inconclusive = small, poorly fitted or top-dose-only effect; inactive = no such curve, though single readings can be large or run the other way; further: nearly all actives have a fitted effect of over 60% in size; overnight with compound
# * hit, by the source's call; ? = inconclusive; & = joins results of further samples; [ ] = another dose, or the depositor's remark. On the % scale 0 is the no-effect control and ±100 the full control effect; potency means the concentration at half of the fitted maximal effect. Only part of the results is shown; rates above refer to the full screens.
# Order of values – StopGo RLuc | StopGo FLuc
- COc1ccc(-n2nc(C(=O)N3CCCC(C)C3)c3c4ccccc4n(C)c3c2=O)cc1Cl (stereo not given)
    2.6% | -6.5%
- CC(=O)Nc1c(C)nn(-c2ccccc2)c1N1CCC(C(=O)NCc2cccc(Cl)c2)CC1
    0.7% | -24.5%
- CCCCNC(=O)CN1CCN(c2nc(C(F)(F)F)nc3ccccc23)CC1
    -12.5% | -12.8%
- Cc1cccc(N2C(=O)CC(c3ccc(F)cc3)C3=C2COC3=O)c1 (stereo not given)
    19.4% | -13.0%
- CCn1c(NC(=O)CCc2nc(-c3ccc(OC)c(OC)c3)no2)nc2ccccc21
    13.8% | 14.7%
- CC(C)C(CNC(=O)c1nccnc1N)Nc1ccccc1 (stereo not given)
    4.6% | 8.9%
- COc1cccc2cc(C(=O)NCCOc3cccc(C)c3)c(=O)oc12
    2.9% | 85.3%[activator]
- CN(C)CCCNCc1cccs1
    -8.0% | -9.8%
- C=CCN(CC(F)(F)F)C(=O)c1ccc(NC(=O)NC(C)C)cc1
    17.0% | 6.1%
- CC(C)=CCSc1nnc([C@@H](N)Cc2c[nH]c3ccccc23)o1
    13.2% | 0.0%
- O=C1COc2ccc(C(=O)COC(=O)c3ccc(Cl)cc3Cl)cc2N1
    -12.3% | -15.5%
- Cc1ccc(S(=O)(=O)c2nc(-c3ccco3)oc2SCC(=O)Nc2ccc(F)cc2)cc1
    9.8% | -20.6%
- CS(=O)(=O)N1N=C(c2ccccc2)CC1c1ccco1 (stereo not given)
    24.7% | 97.4%[activator]
- CC(=O)C1=C(c2ccc(C)c(C)c2)N(C(C)=O)n2c(nnc2-c2ccc(Cl)cc2)S1
    -4.2% | -18.6%
- Cc1cc2oc3c(c(=O)c2cc1C)C(c1ccc(C(C)C)cc1)N(c1nc(C)c(C)s1)C3=O (stereo not given)
    -5.6% | -17.9%
- N#Cc1cccc(C(=O)NC2CCCCC2C(F)(F)F)c1 (stereo not given)
    6.9% | -11.5%
- CC1Cc2cc(C(=O)Nc3cccc(-c4nnc5n4CCCCC5)c3)ccc2N1S(C)(=O)=O (stereo not given)
    31.6%[activator] | 0.0%
- O=C(NCCc1c[nH]c2ccccc12)c1ccc(Cl)c(Cl)c1
    -0.3% | 26.4%
- COc1ccc(C(NC(=O)Cn2c(=O)c3c(ncn3C)n(C)c2=O)C(C)C)cc1 (stereo not given)
    4.1% | 15.4%
- O=C(Cc1cccc(F)c1)OCc1cc(-c2ccccc2)on1
    4.8% | 19.1%
- Cn1c(-c2ccc(Cl)cc2Cl)cc2ccccc21
    -12.4% | 8.3%
- CCCNC(=O)CN(C)C(=O)c1cc2ccccc2n1C
    -12.7% | -5.1%
- Fc1cccc(-n2ncc3c2ncn2nc(Cc4ccccc4)nc32)c1
    -9.1% | 0.0%
- COc1ccc(C(=O)NC2CC2)cc1
    5.4% | 22.2%
- Cc1ccc(O)c(C(=O)OCC(=O)Nc2cccc(N3CCCC3=O)c2)c1
    21.6% | 53.1%
- Fc1ccc(NC(=S)NC2CCCCCC2)cc1
    -58.8% | -29.0%
- O=C(O)c1ccc(CNCc2ccc(Cl)cc2)s1
    -6.9% | 10.5%
- CC(NC(=O)c1ccc2c(c1)N(Cc1ccc(Cl)cc1)C(=O)CS2)c1ccccc1 (stereo not given)
    21.8% | -4.6%
- O=[N+]([O-])c1ccccc1/C=N/OCc1ccc(Br)cc1
    -13.1% | 23.5%
- COC(=O)Cc1c(C)c2ccc3c(c2oc1=O)CN(Cc1ccccc1OC)CO3
    -12.7% | -13.5%

# 2 compounds picked at random from those above, as already listed:
# Order of values – StopGo RLuc | StopGo FLuc
- Fc1cccc(-n2ncc3c2ncn2nc(Cc4ccccc4)nc32)c1
    -9.1% | 0.0%
- CCCNC(=O)CN(C)C(=O)c1cc2ccccc2n1C
    -12.7% | -5.1%

# Next results follow.
# Order of values – StopGo RLuc | StopGo FLuc
- CC(=O)c1ccc(S(=O)(=O)N(C)C(C)c2cc3ccccc3o2)cc1 (stereo not given)
    99.3%[activator] | ?
- C#CC(C)(CC)NC(=O)Cc1cccs1 (stereo not given)
    -8.4% | 3.4%
- Cc1ccc(/C=C/C(=O)O)s1
    -12.2% | 0.9%
- Cc1cc(C)n(-c2ccc(NC3CCCC3)nn2)n1
    -11.7%[1.06 µM] | 29.0%
- CCN(Cc1cc2ccc(C)cc2[nH]c1=O)C(=O)c1ccccc1C
    ? | -11.7%
- O=C(CCc1c[nH]c2ccccc12)N1CCCC1c1ccc(F)cc1 (stereo not given)
    10.9% | -16.2%
- Cc1ccc(NC(=O)c2oc3ccccc3c2NC(=O)Cc2ccccc2)cc1
    2.3% | 39.2%[activator]
- COc1cccc(N2CCN(C(=O)CN3C(=O)COc4ccc(S(=O)(=O)N5CCC(C)CC5)cc43)CC2)c1
    9.3% | 8.2%
- CCCCn1c(SCc2cc(=O)oc3c(C)c(C)ccc23)n[nH]c1=O
    23.2% | 7.4%
- Cc1c2cnn(-c3ccccc3)c(=O)c2c(C)n1C(C)C(=O)NCc1ccccn1 (stereo not given)
    -7.7% | 9.1%
- CC(=O)N1CCc2cc(S(=O)(=O)NC(Cc3ccccc3)C(=O)Nc3ccc(C)cc3C)ccc21 (stereo not given)
    59.3%[activator] | -13.8%
- Cc1ccc(C2C(C#N)=C(N)Oc3c2oc(CO)cc3=O)cc1C (stereo not given)
    13.3% | 6.2%
- COc1ccc(-c2noc(-c3ccc(C)cc3Cl)n2)cc1OC
    37.2% | 167.5%[activator]
- Cc1ccc(C2C3=C(CC(C)(C)CC3=O)Nc3nc(N)[nH]c(=O)c32)cc1 (stereo not given)
    -13.7% | -6.5%
- CC(C)CC(C(=O)NCc1ccc(F)cc1)N1Cc2ccccc2C1=O (stereo not given)
    105.6%[activator] | -11.7%
- Cc1ccc(CNC(=O)CCCN2C(=O)CCn3nc(-c4cccn4C)cc32)cc1
    ? | ?
- Cc1ccc(-n2nc(CO)c(C(=O)NCCCc3ccccc3)n2)cc1C
    -12.1% | -18.0%
- CNc1c(NC(=O)c2ccccc2Cl)c(=O)oc2ccccc12
    8.9% | 9.4%
- COc1ccc(NC(=O)c2cc(C3CC3)nc3c2c(C)nn3-c2ccccc2)cc1OC
    -5.6% | -11.7%
- Nc1nc(-c2ccccc2)c(C(=O)Nc2ccccc2)s1
    -1.3% | 8.3%
- COc1cc(OC)c(NC(=O)N2CCc3c([nH]c4ccccc34)C2c2ccccc2F)cc1Cl (stereo not given)
    -12.9% | -17.5%
- CCCNc1c(NS(=O)(=O)c2ccc(F)cc2)c(=O)oc2ccccc12
    11.8% | 11.7%
- COc1ccc(CN(C(=O)c2cccc(F)c2)C2CC2)c(OC)c1
    19.9% | -0.7%
- CCCn1c(=O)sc2cc(NC(=O)c3ccccc3Cl)ccc21
    -7.9% | 227.1%[activator]
- CCc1ccc(S(=O)(=O)Nc2cccc(CN(CC)C(C)=O)c2)s1
    142.0%[activator] | -9.1%
- COc1ccc(-c2nc3scc(CCNS(=O)(=O)c4ccc(Oc5ccccc5)cc4)n3n2)cc1OC
    203.6%[activator] | 5.5%
- CCCCOc1cccc(C2c3c(-c4cc(C)ccc4O)n[nH]c3C(=O)N2CCOC)c1 (stereo not given)
    8.7% | -15.2%
- Cc1cccc(C)c1NC(=O)C(Sc1ccccc1)c1ccccc1 (stereo not given)
    4.2% | 6.2%
- N#CC1=C(N)N(c2ccccc2)C2=C(C(=O)OC2)C12C(=O)N(Cc1ccccc1)c1ccccc12 (stereo not given)
    -10.0% | -12.3%
- O=C(NCCc1ccc(C(F)(F)F)cc1)C12CC3CC(CC(Cl)(C3)C1)C2
    ? | ?

# New compounds follow
SMILES	StopGo RLuc	StopGo FLuc
CC(C)c1nc(C#N)c(NCC(c2ccccc2)N2CCOCC2)o1 (stereo not given)	10.2%	8.2%
CCOc1ccc(NC(=O)NC(C)c2ccc(Cl)s2)cc1 (stereo not given)	16.8%	17.2%
Cc1cccc(C(=O)NC23CC4CC(CC(C4)C2)C3)n1	0.0%	0.0%
CCCCc1ccc(C(=O)COC(=O)c2cc(S(C)(=O)=O)ccc2C)cc1	-2.5%	11.8%
Cc1csc2nc(COC(=O)c3ccc(F)cc3)cc(=O)n12	-4.8%	-9.6%
COc1ccc(Nc2nc(N)c3cc(OC)c(OC)cc3n2)cc1	-8.3%	0.0%
Cc1cc(C)c2oc(=O)cc(CN3CCN(c4ccccn4)CC3)c2c1	0.5%	1.8%
COc1ccc(C(=O)CCC(=O)OCC(=O)c2ccc3c(c2)OCCO3)cc1	28.7%	0.0%
CCOCCCNC(=O)/C(C#N)=C\c1ccc(NC(C)=O)cc1	-5.1%	4.8%
Cn1c(=O)c2c(nc(SCCO)n2Cc2ccccc2)n(C)c1=O	-13.9%	2.3%
COc1ccc(CCNC(=O)CCCn2c(=O)c3ccccc3n(Cc3ccccc3C#N)c2=O)cc1OC	-8.3%	-11.5%
CC(C)(C)OC(=O)Nc1ccc(C(=O)NCC(c2ccco2)N2CCCCC2)cc1 (stereo not given)	-8.7%	-7.1%
CCCCS(=O)(=O)c1nc(-c2ccc(Br)cc2)cc(-c2ccccc2)c1C#N	-5.3%	-11.6%
Cc1cccc(NC(=O)c2ccc(CNS(=O)(=O)c3ccc4c(c3)C(C)(C)C(=O)N4C)cc2)c1	?	?
CC(Nc1ccc(N2CCCC2=O)c(Cl)c1)c1nc(C(C)(C)C)no1 (stereo not given)	-6.0%	1.2%
CCn1c(SCc2noc(-c3ccccc3Cl)n2)nnc1N1CCOCC1	4.2%	16.7%
CC(=O)Nc1ccc(NC(=O)c2cc(C(C)C)nc3ccccc23)cc1	-0.9%	2.3%
COc1cccc(N2CC(NC(=O)/C=C\c3ccc4c(c3)OCO4)CC2=O)c1 (stereo not given)	-12.9%	-23.5%
COC(=O)c1ccccc1NC(=O)CSc1c2c(nc3ccc(Cl)cc13)CCCC2	-7.5%	-6.5%
COc1ccc(Cn2cc(CN3[C@@H](Cc4ccccc4)COc4cc(Br)ccc4S3(=O)=O)nn2)cc1	33.6%[activator]	15.6%
Cc1cccc(N2CCN(C(=O)c3ccc(Nc4nc5ccccc5n5nnnc45)cc3)CC2)c1C	3.9%	43.6%[activator]
O=C(c1ccccc1Cl)N(Cc1ccco1)Cc1ccco1	13.5%	-12.2%
O=C(Cc1ccc(F)cc1)NC1CC(=O)N(c2ccc3c(c2)OCCO3)C1 (stereo not given)	1.0%	52.2%[activator]
CC1=C(C(=O)OC2CCCCCC2)C(c2ccc(Cl)cc2)CC(=O)N1 (stereo not given)	4.0%	-6.6%
CC1CCCCN1S(=O)(=O)c1ccc(C(=O)Nc2sc3c(c2C(N)=O)CC(C)(C)NC3(C)C)cc1 (stereo not given)	0.0%	-16.1%

# 3 entries out of the list, arranged by length of the SMILES, high to low.
SMILES	StopGo RLuc	StopGo FLuc
COc1ccc(C(=O)CCC(=O)OCC(=O)c2ccc3c(c2)OCCO3)cc1	28.7%	0.0%
CC(=O)Nc1ccc(NC(=O)c2cc(C(C)C)nc3ccccc23)cc1	-0.9%	2.3%
CCOCCCNC(=O)/C(C#N)=C\c1ccc(NC(C)=O)cc1	-5.1%	4.8%

# Single records, as listed above.
# `COc1ccc(CCNC(=O)CCCn2c(=O)c3ccccc3n(Cc3ccccc3C#N)c2=O)cc1OC` as listed: StopGo RLuc: -8.3%; StopGo FLuc: -11.5%
# `Cc1cc(C)c2oc(=O)cc(CN3CCN(c4ccccn4)CC3)c2c1` as listed: StopGo RLuc: 0.5%; StopGo FLuc: 1.8%
# `CCn1c(SCc2noc(-c3ccccc3Cl)n2)nnc1N1CCOCC1` as listed: StopGo RLuc: 4.2%; StopGo FLuc: 16.7%

# New compounds follow:
SMILES	StopGo RLuc	StopGo FLuc
Cc1ccc(C(=O)C(C)OC(=O)c2n[nH]c(=O)c3ccccc23)cc1 (stereo not given)	-1.6%	-0.3%
CCOC(=O)c1c(S(=O)(=O)NCC(=O)N2CCC3(CC2)OCCO3)c(C)n(C)c1C	6.7%	0.0%
Cc1cc(OC(C)C(=O)NCCCN2CCOCC2)c2c(C)c(C)c(=O)oc2c1 (stereo not given)	-4.8%	-2.8%
Cc1cc(C)c(NC(=O)C23CC4CC(C2)CC(c2ccccc2)(C4)C3)c(Cl)c1	3.6%	4.1%
COc1ccc(N2CC(NC(=O)c3ccc(S(=O)(=O)N4CCOCC4)cc3)CC2=O)cc1OC (stereo not given)	-14.4%	-12.9%
CN(Cc1cccc(F)c1)C(=O)CCCc1c[nH]c2ccccc12	0.0%	70.6%[activator]
CCCCOc1ccc(CNC(=O)Cc2ccc(NC(=O)N3CCCCc4ccccc43)cc2)cc1	-13.6%	4.9%
Cc1cc(C)c(-c2n[nH]c3c2C(c2ccccc2F)N(CCO)C3=O)c(O)c1 (stereo not given)	9.9%	-5.5%
CCN(CC)S(=O)(=O)c1ccc2c(c1)nc(CN(C)C(=O)Nc1ccc(C)c(Cl)c1)n2C	3.5%	-2.4%
CCCC(=O)N/C(N)=N/c1nc(C)c2cc(C)ccc2n1	11.7%	65.7%[activator]
CCOc1ccccc1NC(=O)CN(c1cc(C)cc(C)c1)S(=O)(=O)c1c(C)nn(C)c1C	-3.4%	-15.2%
COC(=O)c1ccc(C)c(NS(=O)(=O)c2ccc3ccccc3c2)c1	8.8%	-6.0%
CCCCn1nc(C(=O)N(C)Cc2ccccc2N2CCCCC2)c2ccccc2c1=O	83.5%[activator]	13.1%
CC(=O)c1cc(-c2ccc(F)cc2)n(CC(=O)Nc2cc(C)cc(C)c2)c1C	-8.3%	-8.5%
CCCCc1noc(C(C)N2CCC(c3ccnn3CCO)CC2)n1 (stereo not given)	-7.1%	-4.4%
Cc1ccc(NC(=O)C2CCN(c3nnc(-n4cccc4)s3)CC2)cc1Cl	-8.1%&-20.4%	2.1%&-14.2%
